POLB inh: blocks human DNA polymerase beta activity; Potency, µM (series often up to 114 µM), inactives show top-dose activity change, negative = inhibition, hits mostly inhibitors; Pol beta primer extension/strand displacement, fluorescence kinetic; hit rate 1.3% among 340,000; also: % is scaled to controls: 0 for no effect and ±100 for the full control effect
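Reaction started by 50 nM substrate onto compound-treated Pol beta (10 nM, 15 min preincubation, room temperature); plates read at 0 min and 10 min. Normalized concentration-effect data fitted by four-parameter Hill equation.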
APE1 inh: APE1 (human) endonuclease inhibition | P27695 | recombinant APE1, TAMRA/BHQ-2 abasic DNA cleavage fluorescence | Potency, µM (series often up to 65.8 µM), for the others: at the highest dose activity change, negative = inhibition, usual class: inhibitors | hit rate 0.35% among 350,000 | AID 2517;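 also: plate controls were vehicle for no effect and reference inhibitor for full effect; nearly all actives have a fitted effect of over 55% in size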
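Quantitative HTS: incision of a TAMRA/BHQ-2 double-stranded substrate bearing a tetrahydrofuran abasic site by 0.75 nM APE1 raises fluorescence. Substrate 50 nM final, added after 15 min compound preincubation at room temperature; progress as third-minus-first kinetic read difference.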
BLM helicase inh: inhibitors of human Bloom syndrome helicase BLM | P54132 | recombinant BLM DNA unwinding, fluorescence dequenching | Potency, µM (highest dose often 56.1 µM), for the others: at the top dose activity change, negative = inhibition, hits mostly inhibitors | hit rate 0.2% among 350,000 | AID 2528;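 also: plate controls were vehicle for no effect and no enzyme for full effect; nearly all actives have a fitted effect of over 35% in size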
Target sequence (P54132 whole entry, looked up): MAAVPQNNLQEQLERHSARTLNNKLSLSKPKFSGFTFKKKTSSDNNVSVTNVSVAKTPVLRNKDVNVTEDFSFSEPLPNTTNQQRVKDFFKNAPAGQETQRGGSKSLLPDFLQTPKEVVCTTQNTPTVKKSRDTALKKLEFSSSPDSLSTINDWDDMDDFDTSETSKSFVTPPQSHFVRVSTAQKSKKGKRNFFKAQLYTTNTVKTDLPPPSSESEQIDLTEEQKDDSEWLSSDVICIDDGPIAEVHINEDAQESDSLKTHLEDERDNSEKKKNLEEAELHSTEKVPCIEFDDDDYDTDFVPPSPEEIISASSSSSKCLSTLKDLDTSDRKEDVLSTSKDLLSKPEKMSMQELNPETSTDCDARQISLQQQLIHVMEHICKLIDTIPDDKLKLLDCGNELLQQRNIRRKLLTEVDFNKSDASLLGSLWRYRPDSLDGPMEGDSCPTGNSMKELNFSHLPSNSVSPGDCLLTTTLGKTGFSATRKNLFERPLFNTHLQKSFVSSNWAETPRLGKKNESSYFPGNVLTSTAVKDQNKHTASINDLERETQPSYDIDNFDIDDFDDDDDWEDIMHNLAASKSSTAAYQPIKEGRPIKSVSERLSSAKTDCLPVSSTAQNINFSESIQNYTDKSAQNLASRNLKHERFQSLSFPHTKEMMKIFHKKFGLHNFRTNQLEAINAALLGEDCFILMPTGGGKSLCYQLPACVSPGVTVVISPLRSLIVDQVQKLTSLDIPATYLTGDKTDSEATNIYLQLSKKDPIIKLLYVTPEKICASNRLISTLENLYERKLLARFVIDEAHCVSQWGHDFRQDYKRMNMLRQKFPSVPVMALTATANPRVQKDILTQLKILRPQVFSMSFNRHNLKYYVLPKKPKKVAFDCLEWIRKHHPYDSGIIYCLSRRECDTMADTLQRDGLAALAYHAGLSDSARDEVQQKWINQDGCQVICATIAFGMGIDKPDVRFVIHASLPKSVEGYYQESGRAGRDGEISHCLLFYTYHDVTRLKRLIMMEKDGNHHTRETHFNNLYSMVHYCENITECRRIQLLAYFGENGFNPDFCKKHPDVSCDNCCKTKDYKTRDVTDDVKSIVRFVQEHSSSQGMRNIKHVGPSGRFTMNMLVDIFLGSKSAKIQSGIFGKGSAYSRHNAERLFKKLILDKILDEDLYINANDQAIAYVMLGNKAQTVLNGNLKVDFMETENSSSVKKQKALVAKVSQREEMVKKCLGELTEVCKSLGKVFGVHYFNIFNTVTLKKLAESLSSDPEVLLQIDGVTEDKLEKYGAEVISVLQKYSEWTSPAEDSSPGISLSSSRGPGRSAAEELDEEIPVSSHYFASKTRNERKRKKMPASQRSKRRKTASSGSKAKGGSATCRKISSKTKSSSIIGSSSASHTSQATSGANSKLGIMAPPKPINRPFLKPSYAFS
POLK inh: DNA polymerase kappa (human) inhibition. Q9UBT6. purified Pol kappa, fluorescent DNA synthesis assay, 10 min. Potency, µM (series often up to 107 µM), inactives show at the highest dose activity, negative = inhibition, actives largely listed as inhibitors. hit rate 0.53% among 400,000. AID 588579; also: % is scaled to controls: 0 for no effect and ±100 for the full control effect
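Kinetic fluorescence readout at 0 and 10 min followed reaction start with substrate at 50 nM final. Beforehand, enzyme (10 nM Pol kappa) stood 15 min with compound at room temperature; buffer-only wells were negative controls.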
Pol iota inh: DNA polymerase iota (human) inhibition | Q9UNA4 | Pol iota fluorescent replication assay, 10 min | Potency, µM (titrated, usually from 115 µM), without a hit: top-dose activity, negative = inhibition, most hits filed as inhibitors | hit rate 1% among 390,000
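Fluorescent replication assay read twice, at 0 min and 10 min after adding 50 nM (final) substrate. Enzyme (10 nM) and compounds were first incubated 15 min at room temperature; enzyme-free buffer wells were negative controls.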
POLH inh: inhibitors of human DNA polymerase eta; recombinant Pol eta, fluorescent DNA replication assay; Potency, µM (doses to about 114 µM), for the others: at the top dose activity change, negative = inhibition, usual class: inhibitors; hit rate 1.2% among 390,000; AID 588591; also: % is scaled to controls: 0 for no effect and ±100 for the full control effect
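Pol eta (10 nM) was preincubated with compounds for 15 min at room temperature, after which fluorescent replication substrate (50 nM final) was added to start the reaction. Fluorescence was read kinetically at 0 and 10 min.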
Numbers without * were called inactive; ? = inconclusive; · = no result given; [ ] = dose if it differs, or a comment. Calls follow the shape of the dose curve; as a rule, active = well fitted curve in the direction sought with a large enough effect; inconclusive = small, poorly fitted or top-dose-only effect, or another doubt; inactive = no such curve, though single readings can be large; an effect the other way counts as inactive or inconclusive. Potency is read from the fitted curve at half-maximal effect.

Short forms – A = POLB inh; B = APE1 inh; C = BLM helicase inh; D = POLK inh; E = Pol iota inh; F = POLH inh
> Cc1cccc(S(=O)(=O)C(C#N)c2nc3ccccc3nc2N2CC(C)OC(C)C2)c1 (stereo not given)
  A = 3%	B = 3%	C = 2%	D = -6%	E = ?	F = -15%

> CCc1cccc2c1NC1(CCCC1)CC2C (stereo not given)
  A = 22%	B = 15%	C = -9%	D = 0%	E = ?	F = 7%

> COc1ccc(Cl)cc1N(CC(=O)Nc1ccc2c(c1)OCO2)S(C)(=O)=O
  A = -1%	B = -1%	C = 0%	D = -3%	E = 2%	F = 3%

> CCOC(=O)c1c(/N=C/c2cccc(C)c2O)sc2c1CCN(C)C2
  A = 26%	B = 5%	C = -5%	D = -6%	E = 15%	F = -16%

> COc1cc2ccccc2cc1C(=O)N(CCN(C)C)c1nc2c(F)cccc2s1
  A = -1%	B = -3%	C = 6%	D = -9%	E = 14%	F = -17%

> CN1CCN(CC(O)COCCOc2ccc(Br)cc2)CC1 (stereo not given)
  A = 23%	B = 3%	C = 1%	D = -8%	E = ?	F = -13%

> COc1ccc(-c2cc(-c3n[nH]c(=S)n3-c3ccccc3OC)[nH]n2)cc1
  A = 72%	B = -3%	C = -2%	D = -2%	E = -10%	F = -16%

> O=C(O)CN(Cc1ccccc1)S(=O)(=O)c1ccc(F)cc1
  A = -1%	B = 2%	C = 0%	D = 7%	E = 9%	F = -6%

> CCCCOc1ccc(Cc2n[nH]c(=S)n2N)cc1
  A = 1%	B = ?	C = 2%	D = 2%	E = 181%[activator]	F = -11%

> Cc1ccccc1Nc1sc(C(=O)c2ccccc2)c(N)c1C(=O)NCc1ccc(Cl)cc1
  A = 11%	B = ·	C = -8%	D = -5%[60.1 µM]	E = 4%	F = -18%

> CC(=O)Nc1ccc(NC(=O)CN(c2cc(Cl)ccc2Cl)S(C)(=O)=O)cc1
  A = 14%	B = 1%	C = -15%	D = -12%	E = 58%[activator]	F = -15%

> COc1cc(OC)c(OC)cc1CN(C)C(c1ccccc1)c1nnnn1-c1ccccc1C (stereo not given)
  A = 13%	B = 1%	C = -8%	D = -19%	E = -16%	F = -22%

> Cc1ccc(NS(=O)(=O)c2ccc(N3CCN(c4ccc(O)cc4)CC3)c([N+](=O)[O-])c2)c(C)c1
  A = 7%	B = 5%	C = -9%	D = -14%	E = ?	F = -9%

> Cc1ccc(N2C(=O)C3C4C=CC(CNC(=S)Nc5ccc(F)cc5)(O4)C3C2=O)cc1 (stereo not given)
  A = 5%	B = 0%	C = -6%	D = -13%	E = 11%	F = -6%

> CN(c1ccccc1)c1nc(N)c([N+](=O)[O-])c(N2CCCCCC2)n1
  A = 3%	B = -8%	C = -11%	D = -6%	E = -17%	F = -12%

> O=[N+]([O-])c1ccc(S(=O)(=O)Nc2ccc(-c3csc(-c4ccccc4)n3)cc2)cc1
  A = 0%	B = -9%	C = -15%	D = ·	E = ·	F = ·

An excerpt taken from the entries so far, for reference:
Short forms – A = POLB inh; B = APE1 inh; C = BLM helicase inh; D = POLK inh; E = Pol iota inh; F = POLH inh
> COc1ccc(-c2cc(-c3n[nH]c(=S)n3-c3ccccc3OC)[nH]n2)cc1
  A = 72%	B = -3%	C = -2%	D = -2%	E = -10%	F = -16%

> O=C(O)CN(Cc1ccccc1)S(=O)(=O)c1ccc(F)cc1
  A = -1%	B = 2%	C = 0%	D = 7%	E = 9%	F = -6%

> CCCCOc1ccc(Cc2n[nH]c(=S)n2N)cc1
  A = 1%	B = ?	C = 2%	D = 2%	E = 181%[activator]	F = -11%

3 compounds already listed, ordered by length of the SMILES, falling:
Short forms – A = POLB inh; B = APE1 inh; C = BLM helicase inh; D = POLK inh; E = Pol iota inh; F = POLH inh
> Cc1ccc(N2C(=O)C3C4C=CC(CNC(=S)Nc5ccc(F)cc5)(O4)C3C2=O)cc1 (stereo not given)
  A = 5%	B = 0%	C = -6%	D = -13%	E = 11%	F = -6%

> Cc1ccccc1Nc1sc(C(=O)c2ccccc2)c(N)c1C(=O)NCc1ccc(Cl)cc1
  A = 11%	B = ·	C = -8%	D = -5%[60.1 µM]	E = 4%	F = -18%

> COc1ccc(-c2cc(-c3n[nH]c(=S)n3-c3ccccc3OC)[nH]n2)cc1
  A = 72%	B = -3%	C = -2%	D = -2%	E = -10%	F = -16%

Screens from PubChem BioAssay.

The list is partial; rates above refer to the full screens.
